Compound activity (PubChem BioAssay)
Arbovirus anti: blocks arbovirus infection; AID 1251; arbovirus infection cell-based antiviral screen; inhibition, % at 10 µM; hit rate 0.37% among 200,000;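 active = inhibition from about 30%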;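 note: bluetongue infection of BSR cells; cell survival read as ATP light after 72 h; 0% = infected wells without compound and 100% = uninfected wells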
Mtb bLac sens: beta-lactam sensitization of Mtb H37Rv; M. tuberculosis H37Rv growth with meropenem, percent inhibition; hits of this screen are not shown here; hit rate 0.27% among 330,000; inhibition, % at 25 µM; AID 434955;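 active = about 74% or more and at least 40 points above the plate without the antibiotic, then above 30% in a dose series; inconclusive = first-round hits that could not be retested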;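 note: growth measured after seven days incubation then overnight dye step; 0% = bacteria only wells and 100% = bacteria with antibiotic; twin plates without the antibiotic show which effects depend on it; some results filed as inactive read as strong as hits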
YopH inh: blocks Yersinia enterocolitica YopH tyrosine phosphatase. fluorescence Ex485/Em525. inhibition, %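 (about 10 µM by stock and volumes)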. hit rate 0.16% among 140,000. AID 898;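 active = inhibition of 50% or more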;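 note: controls were vehicle for no effect and minimum signal wells for full effect; inactives centre near -20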
RecA splice inh: Mtb RecA intein splicing inhibition; cell-free RecA intein splicing, fluorescence; inhibition, %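 (about 9 µM by stock and volumes)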; hit rate 0.75% among 290,000; AID 2221; in the data active = inhibition above about 30%; inconclusive = no clear call, values can overlap the other calls;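 note: 0% = vehicle wells and 100% = reference inhibitor control wells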
Target sequence (P9WHJ3 whole entry, looked up, canonical isoform): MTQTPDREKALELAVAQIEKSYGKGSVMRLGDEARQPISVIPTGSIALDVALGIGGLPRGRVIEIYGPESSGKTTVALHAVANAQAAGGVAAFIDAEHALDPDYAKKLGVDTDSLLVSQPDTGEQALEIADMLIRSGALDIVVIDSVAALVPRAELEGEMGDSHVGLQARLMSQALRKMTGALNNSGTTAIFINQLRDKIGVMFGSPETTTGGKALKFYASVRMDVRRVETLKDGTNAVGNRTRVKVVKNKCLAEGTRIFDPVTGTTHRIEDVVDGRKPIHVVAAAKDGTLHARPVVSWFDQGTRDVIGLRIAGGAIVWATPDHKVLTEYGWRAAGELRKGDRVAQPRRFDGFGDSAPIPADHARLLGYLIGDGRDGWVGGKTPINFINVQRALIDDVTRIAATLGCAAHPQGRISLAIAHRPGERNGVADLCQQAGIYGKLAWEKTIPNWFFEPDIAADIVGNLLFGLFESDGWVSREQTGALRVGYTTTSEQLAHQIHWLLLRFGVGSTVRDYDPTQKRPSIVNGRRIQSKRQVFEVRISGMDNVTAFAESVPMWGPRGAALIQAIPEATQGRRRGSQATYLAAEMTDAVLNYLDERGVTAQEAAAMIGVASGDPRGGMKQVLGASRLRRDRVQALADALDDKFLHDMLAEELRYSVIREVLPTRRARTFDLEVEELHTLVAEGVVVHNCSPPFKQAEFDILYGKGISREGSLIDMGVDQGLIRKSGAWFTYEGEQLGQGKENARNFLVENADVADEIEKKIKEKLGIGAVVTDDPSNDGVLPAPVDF
Mtb growth: M. tuberculosis H37Rv growth inhibitors, H37Rv strain (AID 1626) | M. tuberculosis H37Rv growth inhibition; higher % means a stronger effect | inhibition, % at 10 µM; hits with a dose series show IC50 in µM | hit rate 0.95% among 220,000;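 active = confirmed in a dose series; inconclusive = inhibition above 80% but not taken into the dose series; inactive = below 80% or under 30% at every dose of the series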;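 note: bacteria incubated seven days before Alamar blue readout; 0% = bacteria only wells and 100% = bacteria with antibiotic wells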
Arbovirus anti repeat: second read-out of Arbovirus anti, no call of its own (marks repeat the call); inhibition, %; measured here: 10K subset replicate screen; many hits read low in the repeat;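 first of two repeat runs on a subset; 0% = infected and 100% = uninfected wells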
The depositor's hits bear a star; ? = inconclusive; . = not tested or not shown. The list is partial; rates above refer to the full screens.

SMILES	Arbovirus anti	Mtb bLac sens	YopH inh	RecA splice inh	Mtb growth	others
Oc1ccccc1/C=N/n1c(-c2ccccc2)n[nH]c1=S	.	2	.	-3.0	.
CCOC(=O)C1NN=C(C(=O)c2ccc(C)cc2)C1c1ccc(C)cc1 (centres undefined)	-5	5	-34	9.5	-1%
O=C(O)c1ccc(NS(=O)(=O)c2ccc(Cl)cc2)cc1	-1	-1	-52	-0.4	-2%
Cc1ccc(NS(=O)(=O)c2sc3ccc(Cl)cc3c2C)cc1	.	-4	.	4.5	6%
O=C(c1cccc(F)c1)N1CCC(c2nc3ccccc3s2)CC1	9	10	.	4.8	6%
CCN1CCCC1CNC1=NCCCCC1 (centres undefined)	9	-2	-30	-0.7	-1%
O=C(CNC(=O)c1nc[nH]c1C(=O)N1CCNCC1)OCc1ccccc1	.	-2	.	1.6	.
CCOC(=O)CSc1nc2nc(C)cc(C)n2n1	3	-6	-20	0.2	-5%	Arbovirus anti repeat=12
CN(C)S(=O)(=O)c1ccc(NC(=O)CN2CCCc3ccccc32)cc1	0	-2	.	1.5	4%
Cc1cc(S(N)(=O)=O)c(N)c(S(N)(=O)=O)c1	.	-4	.	-0.1	-3%

Retrieved one by one from the entries so far, 2 records:
SMILES	Arbovirus anti	Mtb bLac sens	YopH inh	RecA splice inh	Mtb growth	others
CN(C)S(=O)(=O)c1ccc(NC(=O)CN2CCCc3ccccc32)cc1	0	-2	.	1.5	4%
O=C(CNC(=O)c1nc[nH]c1C(=O)N1CCNCC1)OCc1ccccc1	.	-2	.	1.6	.

Additional compounds follow:
SMILES	Arbovirus anti	Mtb bLac sens	YopH inh	RecA splice inh	Mtb growth	others
CS(=O)(=O)c1ccc(-c2csc(-c3cccnc3)n2)cc1	.	0	.	-6.7	.
CCC1C2CN(C(C)=O)CC=C2C(C#N)=C(N)C1(C#N)C#N (centres undefined)	-3	-3	-42	-0.6	-2%
Cc1ccc(NC(=O)c2ccco2)c(NC(=O)CN2C(=O)c3ccccc3C2=O)c1	5	-10	-17	-0.3	2%
N#CCCn1cc(/C=N/O)c(-c2cccc([N+](=O)[O-])c2)n1	5	-5	.	0.3	-4%
O=C(COC(=O)c1ncc(Cl)c(Cl)c1Cl)Nc1ccc(Cl)cn1	.	0	.	5.9	.
C[C@]12C=CC(=O)C=C1CC[C@@H]1[C@@H]2[C@@H](O)C[C@@]2(C)[C@H]1CC[C@]2(O)C(=O)COC(=O)CCC(=O)NCCc1ccc(O)cc1	.	-5	.	-1.2	.
CN(C)C(=O)COc1ccc(S(=O)(=O)c2ccc(OCC(=O)N(C)C)cc2)cc1	.	-4	.	-0.5	.
CCCCN1C(=O)/C(=C/C=C/c2ccco2)C(=O)NC1=S	-10	.	16	9.0	3%
CCCC(C(=O)NCc1ccco1)N(C(=O)CNS(=O)(=O)c1ccccc1)C1CCCC1 (centres undefined)	3	2	-1	-0.6	3%
CCCCCC(=O)Nc1ccccc1N1CCN(c2ccccc2)CC1	-3	10	-30	7.2	11%
O=C(Nc1cccc(-c2nn[nH]n2)c1)c1ccc(Br)s1	.	-4	.	1.5	.
Nc1nnc(SCC(=O)N2CCc3ccccc3C2)s1	10	5	.	0.3	1%
O=C(Nc1nc2c(F)cc(F)cc2s1)C1COc2ccccc2O1 (centres undefined)	.	10	.	5.6	-5%
Cc1cccc(OC2CCN(Cc3c(C(=O)N4CCCC4)nc4ccccn34)CC2)c1	6	0	.	.	3%
CS(=O)(=O)NCc1nnc(SCC(=O)NC2CCCCC2)n1-c1ccc(F)cc1	11	-7	-11	1.5	-5%
CC(C)n1c(S(=O)(=O)O)nc2ccccc21	3	-1	.	-0.4	9%
CC(C)[C@H](NC(=O)N1c2ccccc2NC(=O)[C@@H]1C(C)C)C(=O)N[C@H](Cc1ccccc1)C(=O)O	.	-8	.	1.8	.
CN(c1ccc(OCC(=O)N2CCOCC2)cc1)S(=O)(=O)c1ccc(F)cc1	5	-8	.	-3.3	-1%
CC(Oc1ccccc1Cl)C(=O)Nc1ccc(S(=O)(=O)N2CCCC2)cc1 (centres undefined)	.	2	.	5.2	.
CCC1CCCCN1CCCNC(=O)Cn1ncc2c(C)n(Cc3ccccc3Cl)c(C)c2c1=O (centres undefined)	.	?	.	5.7	.
S=C(Nc1ccc(Br)cc1Cl)NN1CCOCC1	3	-2	.	-0.2	2%
CCOc1cccc(/C=N/Nc2nc(N3CCCC3)nc(N3CCCC3)n2)c1O	.	.	.	0.3	8%
Cc1cc(C(=O)N/N=C/c2ccc([N+](=O)[O-])cc2)c(C)o1	-6	-2	.	-0.1	-9%
O=C(Nn1cnc2ccccc2c1=O)c1ccccc1Cl	-6	4	-26	-1.2	-9%
CCOc1ccc(S(=O)(=O)N2CCN(C)CC2)c(C)c1C	6	-7	-20	4.3	-5%
O=C(CCCC(=O)N1CCN(c2ccc([N+](=O)[O-])cc2)CC1)c1ccccc1	3	-3	-34	0.0	1%
COc1ccccc1COCC(O)CN1CCCCC1CO (centres undefined)	.	2	.	1.8	.
COCCCN1C(=O)C(=O)/C(=C(/O)c2ccc(OC)cc2)C12C(=O)N(C)c1ccccc12 (centres undefined)	-4	2	.	5.4	-2%
CCS(=O)(=O)c1nc(S(=O)(=O)c2ccc(Cl)cc2)c(NCCCN2CCCC2=O)s1	.	3	.	4.3	.
Cc1ccc(C)c(NC(=O)CSc2nnc(-c3ccccc3C)o2)c1	-5	-29	-46	1.8	-10%
Cc1ccc(CCNC(=O)C(C)n2nc(C)c3c(C)n(-c4ccccc4)nc3c2=O)cc1 (centres undefined)	.	-2	.	6.0	.
O=C(NCCS(=O)(=O)N1CCCCC1)c1ccc2c(c1)OCO2	.	-7	.	-1.6	.
CCC(=O)Nc1cccc(-c2nnc(SCC(=O)NCc3ccco3)n2C)c1	8	-12	2	-0.4	.
O=C(C1CC1)N(CCc1ccccc1)Cc1nc2ccccc2c(=O)[nH]1	3	-15	-17	0.8	-3%
O=c1[nH]c(-c2ccco2)nc2sc3c(c12)CCCC3	-14	2	-57	-2.3	6%
CCN(CC)c1ccc(/C=N/NC(=O)CNC(=O)/C=C/c2ccco2)cc1	.	14	.	1.1	.
COc1ccc(Oc2cn[nH]c2-c2ccc(OCC(=O)NN)cc2O)cc1	.	1	.	9.3	.
C=CCn1c(O)c(C(C)=NCCc2ccccc2)c(=O)[nH]c1=O	-1	-17	-12	-2.0	2%
Cc1onc(-c2c(F)cccc2Cl)c1C(=O)O/N=C(\N)c1ccc([N+](=O)[O-])o1	.	100	.	.	?
COc1cc([C@@H]2[C@H]3CN(C)CC=C3C(C#N)=C(N)C2(C#N)C#N)cc2c1OCO2	-3	-15	24	-35	0%
COc1ccccc1NC(=O)C(C)OC(=O)c1cccc(-n2cnnn2)c1 (centres undefined)	.	5	.	-0.3	.
S=C1NC[C@H](Cc2ccccc2)N1CCCCC1CCCCC1	-21	-2	.	4.8	14%
COC(=O)Nc1ccc(Oc2ccccc2)cc1	-2	-11	-69	5.7	-4%
O=C(NCc1cccc(C(F)(F)F)c1)C1CC(c2ccccc2[N+](=O)[O-])=NO1 (centres undefined)	-14	5	4	0.2	-2%
CC(=O)Nc1c2c(nn1-c1ccc(Cl)cc1)CSC2	.	-3	.	0.3	.
O=C(NC(=S)Nc1ccccc1O)c1cncc(Br)c1	.	97	.	1.1	.
CC1=C(C#N)C(c2ccc(O)cc2)C2=C(CC(C)(C)CC2=O)N1 (centres undefined)	-9	-2	-13	-5.3	-1%
CCCC[n+]1cc(/N=C(\[O-])OC)on1	5	-7	-25	2.7	1%
CC1CC(C)CN(CCCNC(=O)C2CCN(c3nnc(-n4cccc4)s3)CC2)C1 (centres undefined)	.	4	.	-1.6	.
CCN(CC(=O)NCc1ccc(Cl)cc1)C(=O)NCc1ccc(Cl)cc1	.	-8	.	0.1	.

More structures:
SMILES	Arbovirus anti	Mtb bLac sens	YopH inh	RecA splice inh	Mtb growth	others
C#CCOCCOCCOCCNc1nc(N2CCN(C(=O)C([C@@H](C)CC)n3cc(C(N)COC(=O)C(F)(F)F)nn3)CC2)nc(N2CCN(C(=O)[C@H](CCC(=O)O)n3cc(C(N)CC(C)C)nn3)CC2)n1 (some centres undefined)	.	-6	.	-0.1	-4%
COc1ccc(C2CC(c3ccc(F)cc3)Nc3nc(N)nn32)cc1OC (centres undefined)	-1	-5	-21	1.1	-15%	Arbovirus anti repeat=4
O=C(Nc1nc(-c2ccccc2)c(-c2ccccc2)o1)c1ccc(F)cc1	-15	92	-39	8.4	?
CCCCCCCc1c(C)nc(N2CCOCC2)[nH]c1=O	6	-6	-10	-0.4	9%
Cc1nn2c3c(cnc2c1-c1ccccc1)C(=O)CC(c1ccco1)C3 (centres undefined)	-9	-8	-27	-1.8	2%
CC(=O)Nc1ccc(-c2cc(-c3ccc(NC(C)=O)cc3)nc(-c3ccccc3)n2)cc1	-15	8	-21	6.8	5%
Oc1c(Br)cc(/C=N/NC(=S)NCc2ccco2)cc1Br	.	2	.	3.4	-8%
CCOC(=O)CN1C(=O)CC(c2ccccc2)C1=O (centres undefined)	.	5	.	-1.0	.
O=C(Nc1cnn(C23CC4CC(CC(C4)C2)C3)c1)c1cnn2cccnc12	-9	43	-2	3.1	29%
COc1cccc(-c2nc(CCl)cs2)c1OC	12	4	.	1.3	3%
O=C(OC1CCOC1=O)c1cc(-c2cccc(Br)c2)nc2ccccc12 (centres undefined)	0	-1	.	3.4	8%
CC(=O)c1ccc(N2CCN(C(=O)Cc3n[nH]c(=O)c4ccccc34)CC2)cc1	8	-18	.	-1.3	-10%
CS(=O)(=O)N1CCN(c2ccccc2NC(=S)NC(=O)c2ccccc2[N+](=O)[O-])CC1	-4	1	.	.	-6%
Cc1cc(C)nc(N2CCN(C(=O)CCC(=O)Nc3nnc(C(C)C)s3)CC2)n1	.	1	.	0.9	6%
C[C@@]12CCC=C[C@H]1[C@H](c1ccoc1)N(Cc1ccccc1)C2=O	.	-3	.	5.0	2%
CN1CCC(OC(=O)c2cccc(F)c2)CC1	.	5	.	-1.5	.
Cc1cccc(C(=O)O/N=C(/c2ccccc2)c2ccncc2)c1	-1	-7	.	0.9	-1%
Cc1oc2c(C)c3oc(=O)c(CCC(=O)NCCCn4ccnc4)c(C)c3cc2c1C	.	-15	.	22	.
Cc1cc(C)c2[nH]c(=O)c(CN(C(=O)C3CCCO3)C3CCCC3)cc2c1 (centres undefined)	-8	.	-33	2.8	-5%
O=C1NC(c2ccccc2)C(C(=O)c2cccs2)=C1O (centres undefined)	-2	0	-51	2.4	-3%

6 compounds already listed, ordered by molar mass, rising.
SMILES	Arbovirus anti	Mtb bLac sens	YopH inh	RecA splice inh	Mtb growth	others
N#CCCn1cc(/C=N/O)c(-c2cccc([N+](=O)[O-])c2)n1	5	-5	.	0.3	-4%
C[C@@]12CCC=C[C@H]1[C@H](c1ccoc1)N(Cc1ccccc1)C2=O	.	-3	.	5.0	2%
CC1=C(C#N)C(c2ccc(O)cc2)C2=C(CC(C)(C)CC2=O)N1 (centres undefined)	-9	-2	-13	-5.3	-1%
COc1ccccc1NC(=O)C(C)OC(=O)c1cccc(-n2cnnn2)c1 (centres undefined)	.	5	.	-0.3	.
COc1ccc(C2CC(c3ccc(F)cc3)Nc3nc(N)nn32)cc1OC (centres undefined)	-1	-5	-21	1.1	-15%	Arbovirus anti repeat=4
COc1ccc(Oc2cn[nH]c2-c2ccc(OCC(=O)NN)cc2O)cc1	.	1	.	9.3	.

Continuation.
SMILES	Arbovirus anti	Mtb bLac sens	YopH inh	RecA splice inh	Mtb growth	others
COc1ccc(N(CC(=O)NN=C2CCCCCCC2)S(=O)(=O)c2ccccc2)cc1	0	6	-25	3.0	-7%
C=C(C)COc1ccc(-c2nc(N)ncc2-c2ccc(Br)cc2)c(O)c1	.	71	.	9.2	.
Cc1nnsc1C(=O)N1CCCC(N2CCN(c3cccc(C(F)(F)F)c3)CC2)C1 (centres undefined)	.	0	.	1.6	.
Cc1cc(NS(=O)(=O)c2ccc(NC(=O)CSc3nc4ncc(Br)cc4[nH]3)cc2)nc(C)n1	.	44	.	1.6	-1%
COc1cc(OC)cc(C(=O)NCC(=O)Nc2ccc(OC)c(Cl)c2)c1	.	-6	.	2.5	.
COc1ccc(CCNC(=O)CC(=O)N/N=C/c2ccc(C(=O)O)cc2)cc1OC	.	1	.	-1.6	.
CC1CC(C)(C)NC(=S)N1CC(=O)NCc1ccc2c(c1)OCO2 (centres undefined)	4	1	.	1.1	-5%
CCOc1ccc(Cn2ccnc2CCl)cc1[N+](=O)[O-]	8	-14	-17	0.2	.
Cc1ccc(C(=O)Nc2onc(C)c2C#N)cc1	3	11	-44	-2.2	5%
c1ccc(CSc2ccc(-c3cccnc3)nn2)nc1	30*	-5	.	0.7	7%
Cc1ccccc1-c1nnc(SCc2ccc(F)cc2)o1	-3	7	-42	8.6	15%
COc1ccccc1NC(=S)N(Cc1ccco1)Cc1cc2cccc(C)c2[nH]c1=O	0	?	5	-0.1	9%
